Bioassay records deposited in PubChem BioAssay by several laboratories.
Env fusion inh – inhibitors of HIV Env-mediated cell fusion. inhibition, % at 12.3 µM. HeLa-JRFL Env/CEM21 cell fusion, luciferase. actives 1.1% (n = 360,000). AID 651610;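 active = mean replicate inhibition score of at least 50 and every replicate individually at or above 50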;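 note: 0% = plate neutral controls and 100% = maraviroc near 300 nM; one replicate is shown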
UUG fidelity – yeast start codon fidelity modulation; actives 0.13% (n = 350,000); activity score, % at 18.7 µM; S. cerevisiae UUG-firefly luciferase reporter, luminescence/redox ratio;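 active = replicate mean at a twofold rise or more, about +100% in these data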;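 note: firefly luciferase made from a UUG start codon reports start codon fidelity; reporter light over untreated wells divided by growth signal over untreated wells; some hits fall short of that in this replicate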
eIF4H FP inh – inhibitors of RNA binding by human eIF4H; AID 2012; Q15056; inhibition, % at 35 µM; eIF4H fluorescence polarization binding assay; actives 0.94% (n = 290,000);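 active = 50% or more with normal probe brightness, or confirmed in later tests; about a fifth of its hits are not listed in these tables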;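 note: calls also rest on retests at 20 µM and on dose response follow-up; 0% = protein and probe with vehicle and 100% = probe without protein; strong numbers were not always called active; many hits fall short of the cut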
CSC inhib – cancer stem cell inhibition. actives 1.1% (n = 300,000). AID 2717. inhibition, % at 7.5 µM. cancer stem cell-like cells viability, luminescence;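 active = mean at 75% or more and at least half the replicates too; tested in HMLE shEcad cells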;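 note: 0% = median of negative and 100% = median of positive control wells; the first replicate is given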
MT1-MMP act inh – MT1-MMP (human) activation inhibition; HT1080 RFP-PRO-GFP cells, GFP/RFP ratio fluorescence, overnight; percent of plate control window, DMSO zero; GFP/RFP ratio change, % at 20 µM; actives 0.061% (n = 360,000); AID 651647;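 active = GFP/RFP ratio change of at least 30% with cell ATP level not reduced by more than half and red fluorescence within 50% of control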; note: strong numbers were not always called active
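Read-out: GFP/RFP fluorescence ratio; Test system: RFP-PRO-GFP reporter HT1080 cells; Compound dosing: single-point 20 µM compound, 1% DMSO; Times: overnight compound exposure at 37 °C.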
PABP FP inh – blocks human PABP binding to poly(A) RNA; inhibition, % at 35 µM; actives 1% (n = 290,000); AID 2014; P11940; fluorescence polarization;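 active = 50% or more with normal probe brightness, or confirmed in later tests; about a fifth of its hits are not listed in these tables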;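 note: calls also rest on retests at 20 µM and on dose response follow-up; controls were probe without protein and protein plus probe with vehicle; some compounds called inactive have numbers as strong as hits; many hits fall short of the cut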
Rce1 inhib – inhibitors of yeast Ras-converting enzyme; AID 2563; yeast membranes, quenched prenylated peptide cleavage fluorescence; calls only; actives 0.27% (n = 290,000);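 active = fall in fluorescence gain of 50% or more versus controls, with final raw signal at or below 3038400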;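 note: plate controls were neutral control wells for no effect and wells lacking membranes for full effect; tested at 10 µM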
Target sequence (Q03530 whole entry, looked up): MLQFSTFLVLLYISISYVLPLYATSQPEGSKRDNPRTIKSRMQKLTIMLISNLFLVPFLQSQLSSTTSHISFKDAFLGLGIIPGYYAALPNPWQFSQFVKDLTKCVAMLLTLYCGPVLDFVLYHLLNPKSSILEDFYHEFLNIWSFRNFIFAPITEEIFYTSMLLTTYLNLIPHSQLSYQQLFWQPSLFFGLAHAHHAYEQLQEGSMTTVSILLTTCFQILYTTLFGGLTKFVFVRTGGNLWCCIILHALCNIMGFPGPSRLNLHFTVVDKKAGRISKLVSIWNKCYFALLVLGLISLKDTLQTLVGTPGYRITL
MT1-MMP act inh RFP – further read-out of MT1-MMP act inh, marked with its call; RFP signal change, %; measured here: RFP expression control read;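 0 = vehicle wells; hits needed this value within 50% of zero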
The depositor's hits bear a star; i = inactive; / = not tested or not shown; & = joins results of further samples; [ ] = another dose, or the depositor's remark.

Abbreviations – A = Env fusion inh; B = UUG fidelity; C = eIF4H FP inh; D = CSC inhib; E = MT1-MMP act inh; F = MT1-MMP act inh RFP; G = PABP FP inh; H = Rce1 inhib
> CSCCC(NC(=O)COc1ccccc1)C(=O)NCC1COc2ccccc2O1 (stereo not given)
  A: -5; B: -17; C: -2; D: /; E: 2; F: 0; G: 0; H: i
> S=C(Nc1ccccc1Cl)Nc1ccc(Cl)cc1Cl
  A: /; B: -20; C: 7; D: 2; E: 1; F: 3; G: 2; H: i
> FC(F)(F)c1cc(CCN2C(=S)NC[C@@H]2c2ccccc2)cc(C(F)(F)F)c1
  A: -6; B: -15; C: 5; D: 3; E: 7; F: 2; G: 9; H: i
> CCN(CC)C(C)C(=O)Nc1c2c(cc3c1CCC3)CCC2 (stereo not given)
  A: -33; B: 2; C: 3; D: 2; E: -2; F: -3; G: 10; H: i
> CC1=C(C(=O)NC(C)c2ccc3c(c2)OCCO3)C2(CCC(C)CC2)OC1=O (stereo not given)
  A: -14; B: 3; C: 6; D: /; E: 7; F: -1; G: -5; H: i
> Cn1c(-c2ccc(F)cc2)cnc1NCc1ccccc1F
  A: -4; B: -15; C: -4; D: -2; E: -1; F: -2; G: 14; H: i
> CCOC(=O)NC(=O)/C(N=Nc1cc(C)cc(C)c1)=C(\C)O
  A: 19; B: /; C: -8; D: -10; E: 9; F: 2; G: -9; H: i
> CN(C)S(=O)(=O)c1ccc(NC(=O)C2CC3C=CC2C3)cc1 (stereo not given)
  A: 2; B: /; C: 6; D: -8; E: 0; F: 6; G: 0; H: i
> Cc1cc(C)cc(N(CC(=O)NCc2ccc(F)cc2)C(=O)c2snc(C(N)=O)c2N)c1
  A: 5; B: /; C: -9; D: 15; E: -5; F: -7; G: -4; H: i
> Cc1ccc(N(CC(=O)NC2CCCCC2)S(=O)(=O)c2c(C)nn(C)c2C)cc1
  A: 9; B: -19; C: 3; D: -14; E: -2; F: 3; G: 7; H: i
> CC(C)Cc1nnc(NC(=O)CSc2ccccn2)s1
  A: -29; B: 10; C: -3; D: 6; E: 8; F: -7; G: -7; H: /
> O=C1c2ccccc2CCC12OC2c1ccncc1 (stereo not given)
  A: 8; B: -24; C: /; D: /; E: -2; F: 0; G: /; H: /
> COc1ccc(C(=O)OCC(=O)c2ccc(C3CCCCC3)cc2)cc1
  A: /; B: -28; C: -1; D: 16; E: 2; F: -17; G: -3; H: i
> C=CCn1c(SCC(=O)NCCOC)nnc1-c1cc2c(s1)CCC(CC)C2 (stereo not given)
  A: 16; B: -19; C: -10; D: 7; E: 0; F: -3; G: -9; H: i
> Nc1nc(-c2ccc(Cl)cc2)nn1C(=O)c1cccnc1
  A: -80; B: -17; C: -4; D: 8; E: 2; F: 4; G: 2; H: i
> Cc1noc(C)c1COc1cccc(C(=O)Nc2ccccc2N2CCOCC2)c1
  A: 10; B: /; C: -10; D: 1; E: 9; F: -3; G: 2; H: i
> COc1cc2c(cc1NC(=O)CSc1nc3ccc(C)cc3[nH]1)oc1ccccc12
  A: /; B: /; C: -15; D: 25; E: /; F: /; G: 4; H: i
> Cc1ccc2c(c1)NC(=O)C(CC(=O)O)O2 (stereo not given)
  A: -17; B: -17; C: 0; D: -14; E: 0; F: 8; G: -7; H: i
> Cc1onc(-c2ccccc2)c1-c1csc(COc2ccccc2)n1
  A: -7; B: -7; C: -11; D: 34; E: -1; F: -6; G: -6; H: i
> O=C(c1cccc(F)c1)N1CCCC(C(=O)N2CCN(c3ccccc3)CC2)C1 (stereo not given)
  A: 0; B: /; C: -4; D: 37; E: 3; F: 10; G: -5; H: i
> O=C(c1cc(-c2ccncc2)nc2ccccc12)N1CCN(c2ccc(N3CCOCC3)nn2)CC1
  A: -19; B: -20; C: 5; D: -2; E: -4; F: -4; G: -8; H: i
> CCCCCCc1cc2cc(C(=O)Nc3ccccc3)c(=O)oc2cc1O
  A: /; B: 1; C: 14; D: 100*; E: -25; F: -33; G: 34; H: i
> Cc1ccc2nc(SCC(=O)Nc3cccc(Cl)c3)nc(=O)n2c1
  A: -11; B: -26; C: /; D: -15; E: 3; F: -7; G: /; H: i
> CN(c1ccc(OCC(=O)Nc2nc3ccccc3s2)cc1)S(=O)(=O)c1ccccc1
  A: 24; B: -3; C: -12; D: 24; E: 1; F: -14; G: 9; H: i
> COc1cccc(NC(=O)CN(c2cccc(C(F)(F)F)c2)S(C)(=O)=O)c1
  A: -99; B: -17; C: 1; D: -15; E: 0; F: -3; G: 4; H: i
> CC(C)CN(CC(C)C)c1ccc(/C=N/n2cnnc2)cc1[N+](=O)[O-]
  A: 4; B: /; C: 3; D: 3; E: -3; F: -5; G: 5; H: i
> Cc1ccnc(N2CCN(c3cc(C)c(C#N)c4nc5ccccc5n34)CC2)c1
  A: -24; B: -6; C: /; D: -3; E: 3; F: -3; G: /; H: i
> CN(C)c1ccc(C(C(=O)NC2CCCC2)N(C(=O)c2csnn2)C2CC2)cc1 (stereo not given)
  A: -5; B: -11; C: -1; D: -10; E: -5; F: 0; G: 7; H: i
> COc1ccc(CN2CCNC(=O)C2CC(=O)N(C)Cc2nonc2C)c(F)c1 (stereo not given)
  A: 1; B: -4; C: 5; D: 1; E: -1; F: 3; G: 11; H: i
> COc1ccc(/C=C/C(=O)Oc2ccc(/C=N/NC(=O)c3ccncc3)cc2)cc1
  A: 0; B: -18; C: -9; D: 2; E: 2; F: 8; G: 5; H: i
> O=S(=O)(Nc1cccc2c1CCCC2)c1cccc(C(F)(F)F)c1
  A: -7; B: /; C: -4; D: 8; E: -5; F: -3; G: 4; H: i
> O=C1C2C3CCCC3=C3CCCC3C2C(=O)N1c1ccccc1 (stereo not given)
  A: /; B: /; C: 2; D: -1; E: -4; F: 2; G: 17; H: i
> CCCCn1c(N)c(N(CC)C(=O)CSc2nnnn2-c2cc(C)ccc2C)c(=O)[nH]c1=O
  A: -5; B: 35; C: -2; D: 12; E: -3; F: 0; G: -19; H: i
> OCCOc1ccc(CN2CCN(CCCc3ccccc3)C(CCO)C2)cc1 (stereo not given)
  A: -13; B: 3; C: -1; D: /; E: -3; F: 0; G: 6; H: i
> CSc1ccccc1NC(=O)c1ccccc1C
  A: 4; B: -15; C: 2; D: -1; E: 5; F: 11; G: -5; H: i
> Nc1ccc(C(=O)N2CCN(S(=O)(=O)c3ccc(Br)cc3)CC2)cc1[N+](=O)[O-]
  A: -12; B: /; C: /; D: 20; E: -3; F: -4; G: /; H: i
> C[C@@H]1CN([C@H](C)CO)S(=O)(=O)c2ccc(C#CCN(C)C)cc2O[C@@H]1CN(C)Cc1ccccc1F
  A: -16&11[16.7 µM]; B: 4&0&2; C: /; D: /; E: 3; F: 5; G: /; H: /
> Cc1csc(SCC(=O)Nc2ncc(Cl)c(C)c2Cl)n1
  A: /; B: -18; C: 11; D: -38; E: -1; F: 7; G: 13; H: i
> COc1ccccc1NC(=O)c1cc(C(=O)O)ccc1C(=O)O
  A: -61; B: -13; C: -13; D: -11; E: -2; F: 3; G: 16; H: i
> O=[N+]([O-])c1ccc(Cl)cc1CNc1ccc(F)c(F)c1
  A: -2; B: /; C: 29; D: -2; E: -1; F: 3; G: 9; H: i
> CC1=C(C(=O)N(C(C)C)C(C)C)CC(CC(=O)NCCCN(C)C)C(=O)N1Cc1ccc(F)cc1 (stereo not given)
  A: -18; B: 8; C: /; D: /; E: 3; F: 3; G: /; H: /
> Cc1snc2sc(C(=O)c3ccc(F)cc3)c(N)c12
  A: -11; B: -13; C: -2; D: -7; E: 1; F: 1; G: -7; H: i
> CCN(C(=O)COC(=O)c1cc(=O)[nH]c2ccccc12)C1CCS(=O)(=O)C1 (stereo not given)
  A: 3; B: -8; C: -2; D: 15; E: -3; F: 0; G: 3; H: i
> Cc1cccc(-c2nn(-c3ccccc3)cc2C(=O)N(C)CC(=O)Nc2ccc(N3CCOCC3)cc2)c1
  A: -2; B: /; C: /; D: -3; E: 3; F: 1; G: /; H: i
> Cc1ccc(C)c(-n2c(C)cc(/C=N/NC(=O)c3c(C)nc4cc(C)ccn34)c2C)c1
  A: -19; B: -22; C: 14; D: 9; E: -2; F: -1; G: 8; H: i
> COc1ccc(Cl)cc1NS(=O)(=O)c1ccc(S(=O)(=O)N2CCCC2)cc1
  A: /; B: /; C: -6; D: 0; E: -4; F: 1; G: -9; H: i
> CC1=CC(C)(C)N2C(=O)C(=O)c3cc(OC(=O)c4ccco4)cc1c32
  A: 11; B: /; C: -8; D: -7; E: -12; F: -4; G: -6; H: i
> CC(C)CNS(=O)(=O)c1ccc(OCC(=O)Nc2ccc3c(c2)OCO3)c(Cl)c1
  A: -58; B: 3; C: -4; D: 6; E: 3; F: -6; G: -10; H: i
> Cn1c(=O)c2c(nc(CN3CCN(Cc4ccccc4)CC3)n2Cc2ccc(Cl)cc2)n(C)c1=O
  A: -3; B: 17; C: -5; D: 55; E: -15; F: -8; G: -1; H: i
> CCN1CCN(CCCNC(=O)c2ccc(CS(=O)c3ccc(Br)cc3)o2)CC1 (stereo not given)
  A: 3; B: -16; C: 1; D: -9; E: 1; F: 2; G: 4; H: i

Remaining list, next part:
Abbreviations – A = Env fusion inh; B = UUG fidelity; C = eIF4H FP inh; D = CSC inhib; E = MT1-MMP act inh; F = MT1-MMP act inh RFP; G = PABP FP inh; H = Rce1 inhib
> COc1ccc(NC(=O)CC2Sc3ncnn3C2=O)cc1 (stereo not given)
  A: 26; B: -17; C: -16; D: 2; E: 3; F: 5; G: -20; H: i
> O=C(c1ccc(N2CCCCC2)c([N+](=O)[O-])c1)N1CCN(S(=O)(=O)c2ccccc2)CC1
  A: -3; B: /; C: /; D: 0; E: 7; F: -6; G: /; H: i
> Cc1cc(C)cc(NS(=O)(=O)c2cccs2)c1
  A: 3; B: -10; C: -7; D: /; E: 2; F: 3; G: 5; H: i
> COc1ccc(/C=C/C(=O)NCc2ccccn2)cc1OC
  A: 6; B: -35; C: 1; D: -1; E: -1; F: 0; G: -2; H: i
> Clc1ccc(CNCCCSc2ncccn2)cc1Cl
  A: 15; B: 3; C: -6; D: -10; E: 4; F: 1; G: 3; H: i
> COc1ccc(Cl)cc1NC(=O)COc1ccc(S(=O)(=O)N2CCOCC2)cc1C
  A: -11; B: -13; C: 3; D: -5; E: 1; F: 1; G: 2; H: /
> Cc1ccc2oc(=O)n(Cc3ccccc3OC(C)C)c2c1
  A: 21; B: 5; C: -5; D: 7; E: -1; F: -3; G: 5; H: i
> CCCCNC(=O)C1(C)CCN1Cc1cccc2c(OC)cc(C(=O)OCC)cc12 (stereo not given)
  A: 15; B: -18; C: /; D: /; E: -7; F: -7; G: /; H: /
> Cc1ccc(SCC(=O)OC(C)C(=O)N2CCc3ccccc32)cc1 (stereo not given)
  A: 1; B: /; C: /; D: 6; E: 3; F: 8; G: /; H: i

The list is partial. The share of hits here may be higher or lower than overall.
